# High-throughput results: PubChem, Broad Institute
# NOMO-1 viab: STK33 inhibitor candidate reducing NOMO-1 cell viability; NOMO-1 AML viability, CellTiter-Glo luminescence, 72 h; inhibition, % (concentration not given with the values); 7.5% of 37,000 active;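 active means most replicates above 80%; inconclusive means exactly half above 80%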;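 further: wells of about 30 µL received 25 nL stock; 0% = median of vehicle wells and 100% = reference inhibitor level; the first replicate is given; inactives centre near 10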
# Starred values were filed as active, the others as inactive; u = inconclusive. An excerpt; count on the stated rates, not on these rows.
structure,NOMO-1 viab
COc1ccc(NC(=O)N(C)C[C@H]2Oc3c(NC(=O)Nc4ccc(F)cc4)cccc3C(=O)N([C@H](C)CO)C[C@H]2C)cc1,27
Cc1cc(C(=O)Nc2cccc3c2O[C@H](CN(C)C(=O)NC2CCCCC2)[C@@H](C)CN([C@@H](C)CO)C3=O)n(C)n1,11
Cc1ccc(S(=O)(=O)Nc2cccc3c2O[C@H](CN(C)S(C)(=O)=O)[C@H](C)CN([C@H](C)CO)C3=O)cc1,-8
Cn1c(SCc2ccc([N+](=O)[O-])cc2)nnc1-c1ccccn1,-25
COc1ccc(NC(=O)Nc2ccc3c(c2)C(=O)N([C@@H](C)CO)C[C@@H](C)[C@@H](CN(C)C(=O)Nc2cccc4ccccc24)O3)cc1,53
C(=C\c1ccccc1)/CSc1nc2ccccc2[nH]1,41
Cc1ccc(S(=O)(=O)N(C)C[C@H]2OCCCC[C@@H](C)Oc3ccc(NC(=O)Nc4cccc5ccccc45)cc3C(=O)N([C@H](C)CO)C[C@@H]2C)cc1,-1
C[C@H]1CN([C@@H](C)CO)C(=O)Cc2cc(NC(=O)CCC(F)(F)F)ccc2O[C@@H]1CN(C)S(=O)(=O)c1ccc(F)cc1,16
C[C@H]1CN([C@@H](C)CO)C(=O)c2cccc(NS(=O)(=O)c3ccc(F)cc3)c2O[C@@H]1CN(C)S(=O)(=O)c1ccccc1,-2
c1ccc(C(c2ccccc2)N2CCC2)cc1,19
C[C@H](CO)N1C[C@H](C)[C@@H](CN(C)Cc2ccccc2)Oc2c(NC(=O)C3CCCCC3)cccc2C1=O,63
COc1ccc(-c2cc(C(F)F)n3ncc(C(=O)N(C)Cc4cnn(C)c4C)c3n2)cc1,30
Cc1ccc(S(=O)(=O)Nc2ccc3c(c2)CC(=O)N([C@@H](C)CO)C[C@@H](C)[C@@H](CN(C)C(=O)NC2CCCCC2)O3)cc1,15
Cc1noc(C)c1S(=O)(=O)Nc1ccc2c(c1)C(=O)N([C@@H](C)CO)C[C@H](C)[C@@H](CN(C)Cc1ccccc1)O2,24
Cc1ccc(S(=O)(=O)N(C)C[C@@H]2Oc3c(NC(=O)c4nc5ccccc5s4)cccc3C(=O)N([C@H](C)CO)C[C@H]2C)cc1,u
C[C@H](CO)N1C[C@H](C)[C@@H](CN(C)S(=O)(=O)c2ccc(F)cc2)Oc2ccc(NC(=O)CCN3CCOCC3)cc2C1=O,4
COc1ccc(NC(=O)N(C)C[C@@H]2Oc3ccc(NC(=O)Cn4cnnn4)cc3CC(=O)N([C@@H](C)CO)C[C@@H]2C)cc1,0
C[C@@H]1O[C@@H](O[C@H]2[C@@H](Oc3cc(O)c4c(c3)O[C@H](c3ccc(O)cc3)CC4=O)O[C@H](CO)[C@@H](O)[C@@H]2O)[C@H](O)[C@H](O)[C@H]1O,-12
CN(CC(=O)Nc1ccc(F)c(Cl)c1)S(=O)(=O)c1ccc(F)cc1,2
O=C(O)c1ccc2cc[nH]c2c1,27
C[C@@H]1CN([C@H](C)CO)C(=O)Cc2cc(NC(=O)Nc3ccccc3)ccc2O[C@@H]1CN(C)Cc1ccc(C(=O)Nc2ccccc2N)cc1,108*
C[C@@H]1CN([C@H](C)CO)C(=O)c2cc(NC(=O)CCCN(C)C)ccc2O[C@H]1CN(C)Cc1ccc(-c2ccccc2)cc1,24
CCN(CC)C(=O)[n+]1ccc(OC)cc1,61
Cc1ccc(C(=O)C2C(=O)C(=O)N(Cc3ccco3)C2c2ccc(F)cc2)o1 (centres undefined),-13
C[C@H](CO)N1C[C@H](C)[C@H](CN(C)S(=O)(=O)c2cn(C)cn2)Oc2c(NC(=O)CCCCCC(=O)Nc3ccccc3N)cccc2C1=O,17
COc1ccc(OC(C)C(=O)Nc2cccnc2)cc1 (centres undefined),27
C[C@H]1CN([C@@H](C)CO)C(=O)c2cc(NS(=O)(=O)c3cn(C)cn3)ccc2O[C@@H]1CN(C)C(=O)Nc1ccc2c(c1)OCO2,-1
C[C@@H]1CN([C@H](C)CO)C(=O)Cc2cc(NC(=O)Nc3ccccc3)ccc2O[C@@H]1CN(C)S(=O)(=O)c1ccc(Cl)cc1,18
C[C@@H]1CN([C@@H](C)CO)C(=O)Cc2cc(NC(=O)Nc3ccc4c(c3)OCO4)ccc2O[C@@H]1CN(C)C(=O)Nc1ccc(C(F)(F)F)cc1,40
C[C@H](CO)N1C[C@H](C)[C@@H](CN(C)C)Oc2ccc(NC(=O)CCN3CCOCC3)cc2C1=O,22
Cc1noc(C)c1NC(=O)Nc1cccc2c1O[C@@H](CN(C)CC1CCCCC1)[C@@H](C)CN([C@H](C)CO)C2=O,21
Cc1cc(C)c2c(n1)sc1c(Sc3nnc(-c4ccncc4)o3)ncnc12,15
C[C@H]1CN([C@@H](C)CO)C(=O)Cc2cc(NC(=O)CCCCCC(=O)Nc3ccccc3N)ccc2O[C@@H]1CN(C)S(=O)(=O)c1ccccc1,5
O=C(CSc1nc2ccccc2s1)Nc1ccccc1C(=O)c1ccccc1,10
O=C(COc1ccc2ccccc2c1)Oc1ccc(C(=O)c2ccccc2)cc1,-11
COc1ccc(/C=C/C(=O)O[C@@H]2[C@@H](O)[C@@H](O)[C@H](O[C@@H]3C=C(CO)[C@H]4[C@H](O[C@@H]5O[C@H](CO)[C@@H](O)[C@H](O)[C@H]5O)OC=C[C@H]43)O[C@H]2C)cc1,-1
O=c1[nH]nc(-c2ccccc2)c2ccccc12,13
C[C@@H]1CN([C@@H](C)CO)C(=O)c2cc(NS(C)(=O)=O)ccc2O[C@@H]1CN(C)Cc1ccncc1,4
Cc1cc(C(=O)Nc2cccc3c2O[C@H](CN(C)S(=O)(=O)c2ccccc2)[C@@H](C)CN([C@@H](C)CO)C3=O)n(C)n1,11
O=S(=O)(NCc1ccccn1)c1ccc(Cl)c(Cl)c1Cl,5
C[C@@H]1CCCCO[C@@H](CN(C)S(=O)(=O)c2ccccc2)[C@@H](C)CN([C@H](C)CO)C(=O)c2cc(NC(=O)Nc3ccc4c(c3)OCO4)ccc2O1,10
Cc1ccc(N(C(C)C(=O)Nc2ccccc2F)S(C)(=O)=O)cc1 (centres undefined),22
C[C@@H]1CCCCO[C@@H](CN(C)Cc2ccccc2)[C@@H](C)CN([C@H](C)CO)C(=O)c2cc(NC(=O)CCC(F)(F)F)ccc2O1,12
Nc1c(Cl)cc(NC(=O)CCCC(=O)O)cc1Cl,-8
O=C(CSc1ncnc2sc(-c3ccccc3)cc12)Nc1ccccc1Cl,u
COc1ccc(NC(=O)Nc2cccc3c2O[C@@H](CN(C)Cc2ccc(Oc4ccccc4)cc2)[C@H](C)CN([C@@H](C)CO)C3=O)cc1,91*
C[C@H](CO)N1C[C@H](C)[C@H](CN(C)C(=O)Nc2ccc(F)cc2)Oc2ccc(NC(=O)CCCCCC(=O)Nc3ccccc3N)cc2C1=O,9
C=CCn1c(SCc2csc(C)n2)nc2sc3c(c2c1=O)CCCC3,31
CC(C)NC(=O)Nc1ccc2c(c1)CC(=O)N([C@H](C)CO)C[C@@H](C)[C@@H](CN(C)C)O2,10
C[C@H]1CN([C@@H](C)CO)C(=O)c2cc(NC(=O)c3ccncc3)ccc2O[C@H]1CN(C)S(=O)(=O)c1ccc(F)cc1,-1
CNC[C@H]1Oc2c(NC(=O)Nc3ccc4c(c3)OCO4)cccc2C(=O)N([C@@H](C)CO)C[C@@H]1C,17
C[C@@H]1CN([C@H](C)CO)C(=O)c2cc(NS(C)(=O)=O)ccc2O[C@@H]1CN(C)CC1CC1,14
COC(=O)c1cc(NC(=O)COc2ccc(C)cc2)cc(C(=O)OC)c1,-11
Cn1c(=O)c2ccccc2[s+]1-c1cccc2cccc(C(=O)O)c12 (centres undefined),12
COc1ccc(NC(=O)N(C)C[C@H]2Oc3ccc(NC(=O)Cc4cn(C)c5ccccc45)cc3C(=O)N([C@H](C)CO)C[C@@H]2C)cc1,50
COc1ccc(OC)c(S(=O)(=O)N2CCC(C(=O)Nc3cc(Cl)ccc3Oc3ccccc3)CC2)c1,42
C1=CN(c2ccccc2)C(C=NCc2ccccc2)=CS1,69
COC(=O)c1ccc(NC(=O)CCn2nc(-c3ccc(Cl)cc3)c3ccccc3c2=O)cc1,19
Cc1noc(C)c1NC(=O)N(C)C[C@@H]1Oc2ccc(N(C)C)cc2CC(=O)N([C@H](C)CO)C[C@@H]1C,14
COc1ccc(NC(=O)Nc2ccc3c(c2)C(=O)N([C@H](C)CO)C[C@@H](C)[C@@H](CN(C)C(=O)NC2CCCCC2)O3)cc1,2

# The list goes on, starting with the last two of the part before.
mol | NOMO-1 viab
Cc1noc(C)c1NC(=O)N(C)C[C@@H]1Oc2ccc(N(C)C)cc2CC(=O)N([C@H](C)CO)C[C@@H]1C | 14
COc1ccc(NC(=O)Nc2ccc3c(c2)C(=O)N([C@H](C)CO)C[C@@H](C)[C@@H](CN(C)C(=O)NC2CCCCC2)O3)cc1 | 2
CN1CCc2c(-c3cccs3)nc(OCc3ccccc3Br)c(C#N)c2C1 | 97*
Cc1ccnc(SCC(=O)Nc2ccc(Cl)cc2Cl)n1 | 30
C[C@@H]1CCCCO[C@@H](CN(C)Cc2ccncc2)[C@@H](C)CN([C@H](C)CO)C(=O)c2cc(NC(=O)CCC(F)(F)F)ccc2O1 | 12
COc1ccc(NC(=O)N(C)C[C@H]2Oc3ccc(NC(=O)Nc4ccc5c(c4)OCO5)cc3C(=O)N([C@@H](C)CO)C[C@H]2C)cc1 | -2
C[C@@H]1CN([C@@H](C)CO)C(=O)c2cc(NC(=O)Nc3ccccc3)ccc2O[C@H]1CN(C)S(C)(=O)=O | 3
CCOC(=O)c1cnc2ccc(F)cc2c1NCc1ccco1 | 20
O=C(COc1ccc(Br)cc1CO)Nc1ccccc1F | -5
Cc1ccc(OCC(=O)NC(=S)Nc2cccc(NC(=O)c3ccccc3Cl)c2)cc1 | 17

# Sorted by formula weight (lowest first): 14 of the compounds above.
mol | NOMO-1 viab
C1=CN(c2ccccc2)C(C=NCc2ccccc2)=CS1 | 69
CCOC(=O)c1cnc2ccc(F)cc2c1NCc1ccco1 | 20
Cc1ccnc(SCC(=O)Nc2ccc(Cl)cc2Cl)n1 | 30
Cn1c(=O)c2ccccc2[s+]1-c1cccc2cccc(C(=O)O)c12 (centres undefined) | 12
O=C(COc1ccc(Br)cc1CO)Nc1ccccc1F | -5
COC(=O)c1cc(NC(=O)COc2ccc(C)cc2)cc(C(=O)OC)c1 | -11
CN1CCc2c(-c3cccs3)nc(OCc3ccccc3Br)c(C#N)c2C1 | 97*
Cc1ccc(OCC(=O)NC(=S)Nc2cccc(NC(=O)c3ccccc3Cl)c2)cc1 | 17
COC(=O)c1ccc(NC(=O)CCn2nc(-c3ccc(Cl)cc3)c3ccccc3c2=O)cc1 | 19
Cc1noc(C)c1NC(=O)N(C)C[C@@H]1Oc2ccc(N(C)C)cc2CC(=O)N([C@H](C)CO)C[C@@H]1C | 14
COc1ccc(NC(=O)Nc2ccc3c(c2)C(=O)N([C@H](C)CO)C[C@@H](C)[C@@H](CN(C)C(=O)NC2CCCCC2)O3)cc1 | 2
COc1ccc(NC(=O)N(C)C[C@H]2Oc3ccc(NC(=O)Nc4ccc5c(c4)OCO5)cc3C(=O)N([C@@H](C)CO)C[C@H]2C)cc1 | -2
C[C@@H]1CCCCO[C@@H](CN(C)Cc2ccncc2)[C@@H](C)CN([C@H](C)CO)C(=O)c2cc(NC(=O)CCC(F)(F)F)ccc2O1 | 12
COc1ccc(NC(=O)N(C)C[C@H]2Oc3ccc(NC(=O)Cc4cn(C)c5ccccc45)cc3C(=O)N([C@H](C)CO)C[C@@H]2C)cc1 | 50

# (next part)
mol | NOMO-1 viab
COC(=O)c1ccc(NC(=O)C(C)N(c2ccc(Cl)cc2)S(C)(=O)=O)cc1 (centres undefined) | -6
Cc1nc2n(CC(=O)c3cccs3)c3ccccc3n2n1 | -32
O=C(NCCCN1CCOCC1)c1cc(-c2ccccc2)on1 | 65
COC(=O)c1c(NC(=S)NCc2ccc(S(N)(=O)=O)cc2)sc2c1CCC(C)C2 (centres undefined) | 32
C[C@@H]1CN([C@@H](C)CO)C(=O)c2cccc(NC(=O)C3CC3)c2O[C@@H]1CN(C)C(=O)Nc1ccc(C(F)(F)F)cc1 | 32
Cc1noc(C)c1S(=O)(=O)N(C)C[C@@H]1Oc2ccc(NS(=O)(=O)c3ccc(F)cc3)cc2CC(=O)N([C@H](C)CO)C[C@H]1C | 6
N#CC1=C(N)C(C#N)(C#N)C(c2ccccc2)C2=C1CCCC2 (centres undefined) | 88*
COc1ccc(-c2cc(C(F)(F)F)nc(SCC(=O)Nc3ccc(Cl)cc3Cl)n2)cc1 | 15
COc1ccc(C)cc1N(CC(=O)Nc1ccc(I)cc1)S(C)(=O)=O | 25
CCN(CC)C(=O)C(c1ccccc1)c1ccccc1 | 25
C[C@@H]1CCCCO[C@@H](CN(C)C(=O)Nc2ccccc2)[C@@H](C)CN([C@H](C)CO)C(=O)c2cc(NC(=O)Nc3ccccc3)ccc2O1 | -4
S=c1[nH]nc(-c2ccncc2)n1Cc1ccccc1 | 5
C[C@@H]1CN([C@H](C)CO)C(=O)c2cc(NC(=O)Nc3ccc4c(c3)OCO4)ccc2O[C@H]1CN(C)Cc1ccc(Cl)c(Cl)c1 | 49
Cc1noc(C)c1NC(=O)N(C)C[C@@H]1Oc2c(NC(=O)C3CCCCC3)cccc2C(=O)N([C@@H](C)CO)C[C@@H]1C | -6
CS(=O)(=O)N(CC(N)=O)c1cc(Cl)c(Cl)cc1Cl | 1
COc1ccccc1NC(=O)C(Cc1ccccc1)N1C(=O)C2C3C=CC(C3)C2C1=O (centres undefined) | 47
O=C(NCCCN=C1NS(=O)(=O)c2ccccc21)c1ccco1 | -15
COC(=O)C1=CO[C@@H](O[C@@H]2O[C@H](CO)[C@@H](O)[C@H](O)[C@H]2O)[C@@H]2[C@@H]3CN4CCc5c([nH]c6ccccc56)[C@]4(C[C@H]12)O3 | 21
CC(C)NC(=O)N(C)C[C@H]1Oc2c(NS(C)(=O)=O)cccc2C(=O)N([C@H](C)CO)C[C@@H]1C | -4
Cc1noc(C)c1NC(=O)Nc1cccc2c1O[C@H](CN(C)S(=O)(=O)c1cccs1)[C@H](C)CN([C@H](C)CO)C2=O | 10
C[C@@H]1CN([C@H](C)CO)C(=O)c2cccc(N(C)C)c2O[C@@H]1CN(C)S(=O)(=O)c1cn(C)cn1 | 10
